Beta2AR agonist = beta2AR agonists driving receptor internalization, primary screen, cell-based, FAP fluorogen, flow cytometry; Beta-2 adrenergic receptor (Homo sapiens), P07550; Am2.2-beta2AR cells; reference of the scale not given here; response, % (concentration not given with the values); actives 0.43% (n = 340,000); AID 504454, 2011;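 active = response above a set limit, near 3 SD of response in nonfluorescent compounds, cut at about 42% in these data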;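 also: stock transfer was 100 nL into about 11 µL; a reference agonist was the positive control; negative values mostly stem from fluorescent compounds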
Target sequence (P07550 whole entry, looked up): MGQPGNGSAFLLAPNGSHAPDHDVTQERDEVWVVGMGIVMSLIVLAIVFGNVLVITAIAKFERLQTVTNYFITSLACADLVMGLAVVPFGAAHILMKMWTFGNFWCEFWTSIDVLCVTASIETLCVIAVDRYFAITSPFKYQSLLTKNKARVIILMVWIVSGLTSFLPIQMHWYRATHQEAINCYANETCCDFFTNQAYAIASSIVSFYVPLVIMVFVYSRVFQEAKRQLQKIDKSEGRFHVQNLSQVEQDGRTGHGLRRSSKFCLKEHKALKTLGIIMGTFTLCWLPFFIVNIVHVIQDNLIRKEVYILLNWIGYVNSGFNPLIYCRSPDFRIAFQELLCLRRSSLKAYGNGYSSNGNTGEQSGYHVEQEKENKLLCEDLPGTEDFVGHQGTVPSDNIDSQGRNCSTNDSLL
E coli growth = E. coli growth inhibition, primary screen, OD600; Escherichia coli growth, 23 h; stronger effect = lower value; OD600 absorbance (concentration not given with the values); actives 0.21% (n = 330,000); AID 1053175, 2014;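 active = OD600 absorbance below the run mean of sample wells minus 3.6 SD, in any replicate, cut at about 0.56 in these data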;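 also: stock transfer was 300 nL into about 60 µL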
UCH37 DUB inh = inhibitors of human UCH37 deubiquitinase, primary screen, biochemical, Ub-AMC cleavage, fluorescence; Ubiquitin carboxyl-terminal hydrolase isozyme L5 (Homo sapiens), Q9Y5K5; purified proteasome/UCH37; inhibition, % (concentration not given with the values); actives 0.33% (n = 330,000);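 active = mean of two replicates above 20%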;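 also: 0% = compound-free wells with enzyme and 100% = wells lacking proteasome; stock transfer was 100 nL into about 20 µL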
Target sequence (Q9Y5K5 whole entry, looked up): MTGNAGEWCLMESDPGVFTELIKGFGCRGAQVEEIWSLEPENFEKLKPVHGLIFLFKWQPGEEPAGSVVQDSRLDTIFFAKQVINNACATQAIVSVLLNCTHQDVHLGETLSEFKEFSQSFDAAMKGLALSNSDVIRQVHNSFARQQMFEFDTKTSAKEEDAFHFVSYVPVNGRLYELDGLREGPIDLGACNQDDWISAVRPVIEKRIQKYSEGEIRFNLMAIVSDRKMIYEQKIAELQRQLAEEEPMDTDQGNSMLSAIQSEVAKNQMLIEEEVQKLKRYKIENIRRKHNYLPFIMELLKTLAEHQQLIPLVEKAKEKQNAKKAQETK
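Test system – human UCH37 enzyme supplied as purified proteasome complex · Incubation – 30 min preincubation with enzyme, 25 min cleavage at room temperature · Detection – AMC fluorescence from Ub-AMC cleavage, excitation 355 nm, emission 460 nm · Benchmarks – no-proteasome wells (full inhibition) and compound-free wells (no inhibition)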
HNF4A DNA FP = change in binding of human HNF4A to DNA, primary screen, biochemical, fluorescence polarization, FITC-DNA | Hepatocyte nuclear factor 4-alpha (Homo sapiens), P41235 | 1 h | activity change, % at 10 µM | actives 0.3% (n = 360,000) | AID 1224865, 2016; in the data active = activity change above about 30%, passing the limit was not always enough;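 also: controls were the assay level and a saturating level of protein; the project sought stronger binding though the title names inhibitors; some compounds called inactive have numbers as strong as hits; positive values seem to mean higher polarization but the record does not say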
Vif A3G = inhibitors of Vif binding to APOBEC3G peptide, primary screen, biochemical, TR-FRET, GST-Vif 1-94, biotin-A3G peptide, dose response retest (AID 1117319). TR-FRET GST-Vif / biotin-A3G peptide binding; higher % means a stronger effect; test concentration not given here; strong numbers were not always called active. actives 0.57% (n = 260,000). Virion infectivity factor (Human immunodeficiency virus type 1 group M subtype B (isolate …. inhibition, %, or IC50 in µM where a hit was titrated;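 active = above the screen mean plus three standard deviations and confirmed in dose response; inconclusive = results disagree or hit not tested in dose response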;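 also: Vif residues 1-94 fused to GST binding biotinylated APOBEC3G peptide 110-148; 0% = full assay without inhibitor and 100% = GST in place of GST-Vif; retest series ran down from 100 µM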
LANA-H2A inh = blockers of LANA interaction with H2A/H2B – biochemical, FP readout, HTS, primary screen; inhibition, % (concentration not given with the values); Protein LANA1 (Human herpesvirus 8 type P (isolate GK18)), Q9QR71; cell-free LANA-H2A/H2B peptide, fluorescence polarization; actives 0.6% (n = 320,000); in the data active = inhibition mostly above about 10%, no sharp cut-off; inactive = mostly below about 6.7%;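 also: stock transfer was 7.5 nL into about 10 µL; 0% = median of vehicle wells and 100% = median of positive control wells; one replicate is shown; the record names a cut of 25% in any replicate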
Bfl-1 A1 inh = caspase 3/7 activation in MEF A1-2A-BIM cells, primary screen, A1 inhibitor project, cell-based, luminescence, HTS; Caspase-Glo 3/7 luminescence, 3 h; percent of clofoctol response, vehicle zero; caspase activation, % (test concentration not listed); AID 2462, 2010; actives 0.066% (n = 330,000);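 active = over half of replicate activation scores above 10%, or exactly half above 10 with the replicate mean above 10; inconclusive = replicate mean below 10 yet half the replicates above 10; inactive = over half of replicates below 10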;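 also: wells of about 30 µL received 50 nL stock; many hits fall short of the cut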
* = called active by the depositor; ? = inconclusive; · = not tested or not shown; & = joins results of further samples.

#	Molecule	E coli growth	Beta2AR agonist	LANA-H2A inh	HNF4A DNA FP	Vif A3G	Bfl-1 A1 inh	UCH37 DUB inh
1	CN(C(=O)c1ccc(-c2nn(C)c(=O)c3ccccc23)cc1)c1ccccc1	0.7	5	6.3	-4.0	-1%	·	0.2
2	COc1ccc(C(=O)N/N=C(\CCC(=O)O)c2ccc(C(C)(C)C)cc2)cc1OC	·	-1	-2.6	2.0	-4%	0.1	·
3	Cc1cc(NC(=O)CCC(=O)N(c2cccc(F)c2)C(C(=O)NC2CCCC2)c2ccccc2)no1 (stereo not given)	0.72	-2	11	-2.0	-4%	0.1	1.1
4	O=C(Nc1ccccc1N1CCCCC1)C1=COCCO1	0.67	1	0.8	0.5	-3%	-0.7	-1.5
5	Cc1ccc(NCC(=O)N/N=C/c2ccc(C(=O)O)cc2)cc1	·	11	8.4	-0.4	18%	-0.2	·
6	O=C(NCc1ccccc1)C1CCCN(S(=O)(=O)c2ccc(-n3cnnn3)cc2)C1 (stereo not given)	0.68	-7	0.0	1.9	5%	-0.1	-1.7
7	CCOC(=O)C1C(=O)CC(=O)CC1CC(C)SCC (stereo not given)	0.74	-2	-2.7	3.2	12%	0.6	4.0
8	CCCCN(CCCC)CCCN1CC(=O)N2[C@@H](Cc3c([nH]c4ccccc34)C2(C)C)C1=O	0.68	0	-6.9	-3.1	47%	0.3	-0.5
9	C#CCOCCOCCOCCNc1nc(N2CCN(C(=O)[C@H]([C@@H](C)CC)n3cc([C@@H](N)CO)nn3)CC2)nc(N2CCN(C(=O)[C@H](CCCCN)n3cc([C@@H](N)CC(C)C)nn3)CC2)n1	·	·	-3.3	·	4%	1.4	4.0
10	c1coc(CNCCCN2CCOCC2)c1	0.71	-3	-5.6	-2.5	-2%	-0.3	4.3
11	CCOc1ccc(NC(=O)Nc2ccc3c(c2)nnn3C)cc1	0.66	60*	-0.1	-3.5	6%	0.1	-1.2
12	COCCn1nnnc1C(c1ccccc1)N1CCN(Cc2ccc3c(c2)OCO3)CC1 (stereo not given)	0.77	5	2.6	-0.2	28%&-3%	-0.1	4.6
13	CN(C)CCNC(=O)COc1ccc(Cl)cc1Cl	0.63	2	-2.7	1.1	-7%	0.2	3.3
14	COc1cccc(CCN2CCC(CNS(=O)(=O)c3cc(-c4cc(C)no4)ccc3C)CC2)c1	0.68	9	-1.3	7.2	·	1.0	1.2
15	C=CCN(C(=O)Cn1ncc2c1-c1cc(C)ccc1OC2)c1ccccc1	0.75	-2	-5.4	-2.5	3%	-0.1	2.2
16	Cc1ccc(-n2ncc3c(NCCCN4CCOCC4)ncnc32)c(C)c1	0.73	-8	0.8	0.1	-5%	0.0	1.9
17	CCN(CC(=O)Nc1ccc(NC(C)=O)cc1)C(=O)c1ccccc1SCC(=O)N1CCCC1	0.7	-5	3.0	-2.2	-2%	-0.7	-3.7
18	COc1ccc(NC(=O)CSc2nnc3ccc(-c4ccccn4)nn23)cc1	0.69	2	4.6	-2.6	-2%	0.1	0.4
19	O=C(O)COc1ccccc1-c1nc(-c2ccccc2)c(-c2ccccc2)[nH]1	0.68	0	-2.1	1.2	-4%	-0.1	-91
20	CN(Cc1cccs1)C(=O)COc1cccc2c1OC(C)(C)C2	·	-1	-5.1	1.8	-2%	-0.9	·
21	CC12CNCC(C)(CN(C3(O)C(=O)Nc4ccc(Br)cc43)C1)C2=O (stereo not given)	0.64	-6	-0.6	-4.6	·	0.7	2.8
22	CN(CCCN1CCCCC1)C(=O)c1cc(COc2ccc(F)cc2F)on1	0.7	-11	-4.5	1.0	3%	0.8	4.2
23	O=C(c1ccc(Cl)c([N+](=O)[O-])c1)N(c1ccccn1)c1ccccn1	0.71	-1	4.5	2.0	-6%	0.7	3.3
24	COc1ccc(NC(=O)CC2S/C(=N\c3nccs3)N(C)C2=O)cc1 (stereo not given)	·	-11	4.4	-4.2	-4%	0.5	·
25	COc1cc(C(C)=O)ccc1OCC(=O)Nc1ccccc1N1CCCCC1	0.67	1	4.4	-2.9	-4%	0.3	1.4
26	COCCNC(=O)C(=O)NCCN1CCNCC1	0.72	-10	1.7	0.9	?	-0.4	0.3
27	CCOc1ccc(S(=O)(=O)Nc2cc(SCC(=O)O)c(O)c3ccccc23)cc1	0.66	1	2.2	3.2	·	0.1	14
28	COc1cccc(CNC(=O)COC(=O)C23CC4CC(CC(Cl)(C4)C2)C3)c1	0.66	1	6.3	2.0	·	0.2	0.6
29	CC1CC(C)CN(C(=O)C2CCN(S(=O)(=O)c3cccs3)CC2)C1 (stereo not given)	0.66	4	-1.1	-0.2	-1%	0.7	2.3
30	O=C(CSc1nnc(CNC(=O)c2cccs2)o1)Nc1cccc(Cl)c1	0.64	-9	0.6	1.3	0%	-1.1	3.3
31	CCOC(=O)c1[nH]c2ccc(F)cc2c1NC(=O)CN1CCN(C/C=C/c2ccccc2)CC1	0.72	10	-3.2	1.6	-1%	-0.2	-7.0
32	CCCOC(=O)c1ccc(NC(=O)c2cccc(S(=O)(=O)N3CCN(C(C)=O)CC3)c2)cc1	0.67	0	-1.0	4.6	·	0.1	0.9
33	Cc1ccc(C)c(Oc2ncnc(N)c2[N+](=O)[O-])c1	0.69	-10	4.0	0.4	·	-0.6	0.4
34	COc1ccccc1-n1c(CNC(=O)c2ccc(S(=O)(=O)N3CCCCC3)cc2)n[nH]c1=S	0.73	10	-5.4	-3.6	·	-1.9	1.0
35	Cc1c(CC(=O)NCCC(=O)O)c(=O)oc2cc3occ(-c4ccccc4)c3cc12	0.69	-3	1.3	-1.7	·	-0.6	-8.3
36	COc1ccc(N(C(=O)/C=C/C(=O)Nc2cc(C)on2)C(C(=O)NC2CCCC2)c2ccccc2C)cc1 (stereo not given)	0.7	8	5.2	9.2	·	-1.0	3.0
37	CCN(CC(=O)Nc1ccc2c(c1)OCCO2)C(=O)C1CCCCC1	0.72	-1	-3.9	0.7	?	0.9	5.2
38	CCOC(=O)/C=C/C(=O)OCC(=O)NCc1ccccc1	0.67	44*	4.7	-0.2	-1%	-0.1	-0.3
39	Cc1ccc(S(=O)(=O)N(C)CC(=O)NC2CCCC2)cc1	0.7	-3	-0.8	0.5	-8%	-0.1	3.1
40	O=C(COc1ccc(F)cc1Br)Nc1ccccc1N1CCOCC1	0.69	2	·	-4.5	6%	·	4.9
41	O=C(Nc1ccc(-c2nc3ccc(NC(=O)c4cccs4)cc3[nH]2)cc1)c1cccs1	0.62	33	7.9	198	-25%	-0.2	-62
42	COc1ccc(CCN(C)C(=O)CCc2nnc(-c3ccccc3)o2)cc1OC	0.71	-2	-1.9	-2.0	·	-2.1	1.4
43	Cc1nc2cc(-c3ccccc3)ccc2o1	0.66	-9	3.3	1.4	-8%	-5.0	-0.7
44	O=C(c1ccc2c(c1)OCCO2)C1CCN(C(=O)Nc2ccc(F)cc2)CC1	0.66	8	-0.5	0.9	-7%	1.5	3.0
45	N#Cc1ccc(OCC(=O)NNC(=S)NC(=O)C2CC2)cc1	·	-6	-1.3	-4.8	0%	0.4	·
46	C1CCN(c2c3c(nc4nnnn24)CCCC3)CC1	0.71	-10	4.4	4.7	-6%	0.2	0.5
47	Cc1cc(C)cc(NC(=O)CCc2ccc(C)o2)c1	·	-3	9.0	0.4	·	-0.3	·
48	CCCOc1ccc(C(C)=O)cc1CN1CCOCC1	0.68	2	3.5	1.7	4%	0.5	2.5
49	COCCCNC(=S)N/N=C/c1cccc(OC)c1O	·	3	1.7	0.6	·	-0.2	·
50	CN(C)S(=O)(=O)c1ccc(N2CCCC2)c(C(=O)NC(c2ccccc2)c2ccccc2)c1	0.76	-2	-1.3	-1.9	12%	-0.1	4.4

Ordered by number of heavy atoms (rising): part of the list above.
#	Molecule	E coli growth	Beta2AR agonist	LANA-H2A inh	HNF4A DNA FP	Vif A3G	Bfl-1 A1 inh	UCH37 DUB inh
49	COCCCNC(=S)N/N=C/c1cccc(OC)c1O	·	3	1.7	0.6	·	-0.2	·
29	CC1CC(C)CN(C(=O)C2CCN(S(=O)(=O)c3cccs3)CC2)C1 (stereo not given)	0.66	4	-1.1	-0.2	-1%	0.7	2.3
50	CN(C)S(=O)(=O)c1ccc(N2CCCC2)c(C(=O)NC(c2ccccc2)c2ccccc2)c1	0.76	-2	-1.3	-1.9	12%	-0.1	4.4

Next part
#	Molecule	E coli growth	Beta2AR agonist	LANA-H2A inh	HNF4A DNA FP	Vif A3G	Bfl-1 A1 inh	UCH37 DUB inh
51	Cc1ccc(C)c(NC(=S)NNC(=O)c2csc(C)c2C)c1	0.66	-6	0.7	-1.8	3%	-2.2	2.6
52	O=C(Oc1ccc(Cl)c2cccnc12)c1cccc([N+](=O)[O-])c1	0.51*	-1	2.3	0.7	-3%	-0.1	5.5
53	CC(C)Nc1nc(SCC(=O)Nc2ccccc2)nc(N2CCOCC2)n1	0.76	28	-3.7	-3.0	10%	-0.1	4.3
54	CCc1c(C(=O)OCc2ccccc2)[nH]c(C)c1C	0.67	5	-1.9	-4.8	-12%	-0.7	6.3
55	CC(=O)c1ccc(NC(=O)CSc2ccc(-c3ccc(-n4cccn4)cc3)nn2)cc1	0.62	-5	-2.6	3.2	-20%	-0.6	4.4
56	O=C(CSc1nnc(CNC(=O)c2ccc(F)cc2)o1)Nc1ccc2c(c1)OCCO2	0.69	9	-2.9	2.9	-5%	-0.4	3.8
57	Cc1ccc(C(C(=O)Nc2ccc3c(c2)OCO3)N(C)C(=O)Cc2c[nH]c3ccccc23)cc1 (stereo not given)	0.69	0	2.5	0.8	·	0.0	2.3
58	CCOC(=O)c1c(C)c(C(=O)N(C)C2CCCCC2)c(C)n1C	0.73	-7	6.6	3.8	10%	-0.3	4.1
59	Cc1ccc(CNC(=O)C2CC3Cn4c(nc5cc(Cl)c(Cl)cc54)C3N2C)o1 (stereo not given)	0.66	-1	-0.5	1.8	18%	0.2	-1.1
60	CCOC(=O)C1CCN(C(c2cc(OC)c(OC)c(OC)c2)c2sc3nc(C)nn3c2O)CC1 (stereo not given)	0.76	-1	-0.1	-0.2	0%	?	2.5

Screening results (PubChem BioAssay)
